Assay outcomes as filed in PubChem.
Vaccinia mCherry = qHTS for Stage-Specific Inhibitors of Vaccinia Orthopoxvirus: mCherry Reporter Primary qHTS; Vaccinia virus mCherry reporter infection, fluorescence; about a quarter of the inactives have no number; Potency, µM (series often up to 36.5 µM), for the others: top-dose activity change, negative = inhibition, hits mostly inhibitors; 0.63% of 310,000 active; active = well fitted inhibition curve with a large enough effect; inconclusive = small, poorly fitted or top-dose-only effect; inactive = no such curve, though single readings can be large or run the other way; tested in A549 cells; note: nearly all actives have a fitted effect of over 35% in size; inactives centre near -10
Vaccinia Venus = qHTS for Stage-Specific Inhibitors of Vaccinia Orthopoxvirus: Venus Reporter Primary qHTS; Vaccinia virus Venus reporter expression, fluorescence; Potency, µM (top dose mostly 36.5 µM), inactives show top-dose activity change, negative = inhibition, actives largely listed as inhibitors; 0.46% of 330,000 active; AID 720580, 2013; active means well fitted inhibition curve with a large enough effect; inconclusive means small, poorly fitted or top-dose-only effect; inactive means no such curve, though single readings can be large or run the other way; tested in A549 cells; note: nearly all actives have a fitted effect of over 30% in size; inactives centre near -10
Active calls of the source: *; i = inactive; ? = inconclusive; nt = not tested or not shown; & = joins results of further samples; [ ] = another dose, or the depositor's remark. % is set by controls: 0 for no effect and ±100 for the full control effect; potency is the fitted concentration of half-maximal effect.

SMILES	Vaccinia mCherry	Vaccinia Venus
CC(=O)c1ccc(NC(=O)CCC(=O)N2CC(C)Oc3ccc(C)cc32)cc1 (stereo not given)	-12%	-9%
Cc1cccc(C(=O)N2CCc3cc(CNS(=O)(=O)c4cccs4)ccc32)c1	-22%	-28%
CNc1nnc(-c2ccc(C)cc2)c2ccccc12	?	?
CC(OC(=O)Cc1c(F)cccc1Cl)C(=O)NC1(C#N)CCCCC1 (stereo not given)	-4%	5%
CCN(CC)CCN(C)c1ccc(N2C(=O)C3CC=CCC3C2=O)cc1[N+](=O)[O-] (stereo not given)	-8%	2%
C/C=C1\NC(=O)[C@H](C)NC(=O)[C@@H](NC(=O)[C@@H](Cc2ccc(O)cc2)NC(=O)[C@@H](NC(=O)/C(C)=C/C)C(C)C)[C@@H](C)OC(=O)[C@H](CCCCc2ccc(O)cc2)NC(=O)[C@@H](CCC(=O)OC)NC1=O	3%	3%
Cc1ccc2c(c1)NC(=O)[C@@]1(C)[C@@H](c3ccccc3)[C@H]3COc4ccccc4[C@@H]3N1C2=O	0%	?
COCCN(C(=S)Nc1ccc(OC)c(Cl)c1)C1CCN(C(C)=O)CC1	i	-21%
COc1cc(OC)cc(C(=O)Nc2cc(-c3nc4ccccc4s3)ccc2OC)c1	-15%	-18%
CC1(C(=O)Nc2ccc(Cl)c(C(F)(F)F)c2)Cc2c(-c3ccc(C(N)=O)cc3)ccnc2O1 (stereo not given)	-23%	-22%
Cc1cc(NC(=O)Cn2c(=O)oc3cc(S(=O)(=O)N4CCCC4)ccc32)ccc1Br	-18%	-10%
CCOc1ccc(CN2CCCC(C(=O)c3ccccc3OC)C2)cc1 (stereo not given)	?	-17%
O=C(N/N=C/c1sc(N2CCOCC2)nc1-c1ccccc1)c1ccccc1Cl	-5%	-20%
COc1ccc(CNC(=O)Cc2ccc(NC(=O)N3CCCCc4ccccc43)cc2)cc1	-19%	-20%
CCc1ccc(S(=O)(=O)c2nnn3c2nc(N(C)Cc2ccccc2)c2cc(Cl)ccc23)cc1	-7%	-9%
NNC(=O)CN1CCN(c2ncc(C(F)(F)F)cc2Cl)CC1	-13%	-10%
CC(=O)N1N=C(c2c(O)n(C)c(=O)n(C)c2=O)CC1c1ccccc1 (stereo not given)	-3%	-10%
CN1CCN(C2Cc3ccccc3Sc3cc(C(F)(F)F)ccc32)CC1 (stereo not given)	?	-27%
CCCCCCCCCCCC(=O)c1c(O)cccc1O	18%	13%
CC1=Nc2ccccc2N=C(NC(=O)c2ccccc2)C1c1ccc(Cl)cc1 (stereo not given)	-25%	-5%
COCC(=O)Nc1ccccc1C#N	-6%	-11%
CCN(CC)C(=O)CSc1nnc([C@@H](N)Cc2ccccc2)o1	-14%	-7%
O=C(Nc1ccc(F)c(F)c1)c1cc(S(=O)(=O)N2CCN(c3ccccn3)CC2)ccc1F	-14%	?
COc1ccccc1Sc1nc(-c2ccccn2)ncc1OC	5µM*	-29%
Cc1ccc(CNC(=S)N2CCOCC2)cc1	i	5%
COc1cccc(-n2c(=O)c3c(C)c(C)sc3n(CC(=O)NCc3ccc(C)cc3)c2=O)c1	1%	9%
O=C(NCCc1ccccc1)C1CCN(S(=O)(=O)N2CCC3(CC2)OCCO3)CC1	-7%	-3%
CCOc1ccc(NC(=O)CN(Cc2ccccc2)S(C)(=O)=O)cc1	-8%	-9%
O=c1[nH]c(=O)n(Cc2ccco2)c(O)c1/C=N/N1CCCCC1	i	-3%
COc1ccccc1NC(=O)c1cc(S(=O)(=O)NCCC2=CCCCC2)ccc1F	-11%	-8%
O=C1CSC(c2ccccn2)N1Cc1cn2ccccc2n1 (stereo not given)	nt	25%
COc1ccc(N2CCN(CCCNC(=O)C3COc4ccc(OC)cc4C3)CC2)cc1 (stereo not given)	-8%	-20%
CN(C)CCCN(C(=O)c1cc(-c2cccs2)nc2ccccc12)c1nc2ccc(F)cc2s1	?	?
OCCC1CN(Cc2cccc3c2OCO3)CCN1Cc1ccccc1 (stereo not given)	-15%	0%
CS(=O)(=O)c1ccc2nc(NC(=O)c3ccc(N4CCCC4=O)cc3)sc2c1	11%	-1%
C/C(=N\NC(=O)CNc1cccc(Cl)c1C)C1CC1	-17%	-9%
O=C(N/N=C/c1ccc(Br)o1)c1cccnc1	-10%	5%
O=C(Cn1c(=O)oc2cc(S(=O)(=O)N3CCCCCC3)ccc21)NC1CCCCCCC1	i	-10%
CC(=O)c1ccc(N2CCN(CC(O)c3ccccc3)CC2)cc1 (stereo not given)	i	-2%
CCN(C(=O)c1noc2c1COc1ccc(C)cc1-2)c1cccc(C)c1	2%	5%
O=C(O)C1CCCCC1C(=O)Nc1ccc2c(c1)OCO2 (stereo not given)	-4%	-1%
Cc1cccc(CSc2nnc(C)c(=O)n2N)c1	-5%	-9%
Cc1ccc(NC(=S)NC(NC(=O)c2ccccc2)C(Cl)(Cl)Cl)c(C)c1 (stereo not given)	?	?
Cc1nn(CC(=O)Nc2cccc(C(F)(F)F)c2)c(=O)c2cccn12	i	-2%
CCOc1ccc(NC(=O)CN(C)C(=O)c2cc(S(=O)(=O)N(C)C)ccc2N2CCCC2)cc1OCC	-10%	-16%
CNC(=O)Oc1cccc2ccccc12	-10%	-11%
COc1ccc(CNCC(O)(c2ccccc2)c2ccc(F)cc2)cc1 (stereo not given)	i	-7%
CCCCCN(C(=O)CCC(=O)OCC(=O)c1ccc(F)c(F)c1)c1c(N)n(CCCC)c(=O)[nH]c1=O	i	-6%
COc1ccc(-c2noc(CSc3nnc(C)n3-c3ccc(C)cc3)n2)cc1	-10%[7.34 µM]	-10%[7.34 µM]
Nc1ccc(N2CCN(CCCCN3C(=O)C4CCCN4C3=O)CC2)cc1 (stereo not given)	i	-11%
C#Cc1cccc(C(=O)NCc2nc(-c3cccc(NC(=O)c4ccccn4)c3)oc2C)c1	i	0%
COc1ccc(/C=C/C(=O)N2CCc3c(cnc(C)c3CNS(=O)(=O)c3cccs3)C2)cc1	-26%	-15%
COC1C(O)C(C)OC(OC2C(Oc3cccc4c(O)c5c(=O)oc6ccc(C)c7c(=O)oc(c34)c5c67)OC(C)C(O)C2O)C1O (stereo not given)	-14%	-9%
CCN1CCN(S(=O)(=O)c2ccc(Cl)c(C(=O)N(C)Cc3ccco3)c2)CC1	-15%	-12%
O=C(NCCCN1CCOCC1)c1ccc(Cl)c([N+](=O)[O-])c1	-6%[7.34 µM]	-1%[7.34 µM]
COc1ccccc1-c1cncnc1NCc1cccc(C)c1	6%	2%
O=C(NCC(=O)N1CCOCC1)c1ccc(Br)o1	-23%	-16%
CCOc1ccc(-n2c(/C=C/c3ccccc3)nc3ccccc3c2=O)cc1	-6%	-9%
NC(=O)c1nsc(C(=O)N(c2cccc(O)c2)C(C(=O)NC2CCCC2)c2ccc(Cl)cc2)c1N (stereo not given)	-3%	-6%
C/C(=N\NC(=O)Cc1cccn1C)c1ccco1	i	-15%

The results go on.
SMILES	Vaccinia mCherry	Vaccinia Venus
CCOC(=O)Cc1csc(NC(=O)/C=C/c2ccco2)n1	-6%[7.34 µM]	-2%[7.34 µM]
Cc1c(C(=O)OCC(=O)N2CC(C)CC(C)C2)oc2ccccc12 (stereo not given)	-7%	-1%
Cc1ccc(-c2nc(C=Nc3ccccc3)c(O)o2)cc1	-6%	-11%
Cc1ccccc1C(=O)NC1(C(F)(F)F)N=C(c2ccccc2)N(Cc2ccccc2)C1=O (stereo not given)	-9%	-5%
Cc1ccc(SC(C)c2nc(-c3ccncc3)no2)cc1 (stereo not given)	-12%	-30%
O=C(/C=C/c1ccc(F)cc1)Nc1ccc(S(=O)(=O)N2CCOCC2)cc1	?	-22%
CN(C(=O)CC1C(=O)NCCN1Cc1ccccc1F)C1CCOCC1 (stereo not given)	-13%	-8%
COCCN1C(=O)N[C@@H](c2cccc(C(F)(F)F)c2)[C@H](C(C)=O)[C@H]1C	i	-9%
COC(C[C@H](O)C[C@H](O)[C@H](C)OCc1ccccc1)OC	i	-22%
COCCCNC(=O)C1CCN(Cc2cc3ccccc3n2Cc2ccccc2C)CC1	-19%	-10%
COC(=O)c1cc2sc(C)cc2n1Cc1ccc(Br)cc1F	-3%	-11%
COC(=O)C1C(O)=C(C=NC2CCCCC2)C(=O)CC1(C)C (stereo not given)	-12%	-12%
CCCCCC(CC(=O)NO)C(=O)NC(C(=O)N1CCCC1CO)C(C)C (stereo not given)	i	-15%
CCN=C1NN=C(c2cc(C)n(CCc3ccccc3)c2C)CS1	-6%	-2%
CC1CCCCN1S(=O)(=O)c1ccc2c(c1)CCN2C(=O)C1CCC1 (stereo not given)	-30%	-22%
CCOC(=O)C1(C)C=C(Nc2ccc(C)cc2)C(=O)N1c1ccc(C)cc1 (stereo not given)	6%	-1%
CCc1ccc(C(=O)COC(=O)c2ccc(Cl)nc2)cc1	i	-1%
Cc1nnc(SCC(=O)Nc2nc(-c3ccc(F)cc3)cs2)[nH]c1=O	13µM*	?
Cc1ccc(C[n+]2cc(-c3ccc(Cl)cc3)n3c2CCC3)cc1	i	-15%
COC(=O)C1=C(c2ccc3ccccc3c2)C[C@@H]2CC[C@H]1N2C(=O)NCc1ccc(F)cc1	-28%	?
O=c1cc(-c2ccc(O)cc2)oc2cc(O)cc(O)c12	?	?
CCOc1ccc(OCC(=O)N2CCOCC2)cc1	nt	-1%
O=C(Nc1ccccc1)Nc1ccccc1	-13%&-14%	-6%&-10%
O=S1(=O)CC2N=C(N(Cc3ccc(F)cc3Cl)c3ccccc3F)SC2C1 (stereo not given)	-9%	-5%
CN(C)c1nnnn1-c1ccc(OC(F)(F)F)cc1	-17%	-17%
CCC(=O)c1ccc(OCC(=O)Nc2ccc(S(=O)(=O)Nc3cc(C)nc(C)n3)cc2)cc1	-14%	-9%
CCC(CC)c1nc(NCCC(=O)O)c2ccccc2n1	-14%	1%
COc1ccc(Cc2nnc(NC(=O)c3c(-c4ccccc4)noc3C)s2)cc1	nt	-9%

Reformatted: 2 of the compounds above.
Compound: O=C1CSC(c2ccccn2)N1Cc1cn2ccccc2n1 (stereo not given)
  Vaccinia mCherry = nt
  Vaccinia Venus = 25%
Compound: CCOc1ccc(NC(=O)CN(Cc2ccccc2)S(C)(=O)=O)cc1
  Vaccinia mCherry = -8%
  Vaccinia Venus = -9%

At a glance, 20 of the compounds above:
SMILES	Vaccinia mCherry	Vaccinia Venus
COC(C[C@H](O)C[C@H](O)[C@H](C)OCc1ccccc1)OC	i	-22%
COCCCNC(=O)C1CCN(Cc2cc3ccccc3n2Cc2ccccc2C)CC1	-19%	-10%
COC(=O)c1cc2sc(C)cc2n1Cc1ccc(Br)cc1F	-3%	-11%
COC(=O)C1C(O)=C(C=NC2CCCCC2)C(=O)CC1(C)C (stereo not given)	-12%	-12%
CCCCCC(CC(=O)NO)C(=O)NC(C(=O)N1CCCC1CO)C(C)C (stereo not given)	i	-15%
CCN=C1NN=C(c2cc(C)n(CCc3ccccc3)c2C)CS1	-6%	-2%
CC1CCCCN1S(=O)(=O)c1ccc2c(c1)CCN2C(=O)C1CCC1 (stereo not given)	-30%	-22%
CCOC(=O)C1(C)C=C(Nc2ccc(C)cc2)C(=O)N1c1ccc(C)cc1 (stereo not given)	6%	-1%
CCc1ccc(C(=O)COC(=O)c2ccc(Cl)nc2)cc1	i	-1%
Cc1nnc(SCC(=O)Nc2nc(-c3ccc(F)cc3)cs2)[nH]c1=O	13µM*	?
Cc1ccc(C[n+]2cc(-c3ccc(Cl)cc3)n3c2CCC3)cc1	i	-15%
COC(=O)C1=C(c2ccc3ccccc3c2)C[C@@H]2CC[C@H]1N2C(=O)NCc1ccc(F)cc1	-28%	?
O=c1cc(-c2ccc(O)cc2)oc2cc(O)cc(O)c12	?	?
CCOc1ccc(OCC(=O)N2CCOCC2)cc1	nt	-1%
O=C(Nc1ccccc1)Nc1ccccc1	-13%&-14%	-6%&-10%
O=S1(=O)CC2N=C(N(Cc3ccc(F)cc3Cl)c3ccccc3F)SC2C1 (stereo not given)	-9%	-5%
CN(C)c1nnnn1-c1ccc(OC(F)(F)F)cc1	-17%	-17%
CCC(=O)c1ccc(OCC(=O)Nc2ccc(S(=O)(=O)Nc3cc(C)nc(C)n3)cc2)cc1	-14%	-9%
CCC(CC)c1nc(NCCC(=O)O)c2ccccc2n1	-14%	1%
COc1ccc(Cc2nnc(NC(=O)c3c(-c4ccccc4)noc3C)s2)cc1	nt	-9%
